HCMV NEC inh – inhibitors of HCMV UL50-UL53 nuclear egress complex interaction | HTRF UL50-UL53 interaction, normalized percent inhibition | inhibition, % (concentration not given with the values) | 190,000 compounds, 0.15% hits | AID 1918969;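 active means both replicates at 50% or more, plus weaker picks with an unusually low signal ratio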;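 further: stock transfer was 100 nL into about 20 µL; 0% = negative control wells and 100% = wells with untagged competitor protein; inactives centre near -12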
GIV Gai3 FP – inhibitors of GIV GBA-motif binding to rat Galpha-i3 | P08753 | AID 1224905 | Galpha-i3/FITC-GIV peptide fluorescence polarization, 90 min; active compounds read low; scaled: aluminum fluoride 0%, vehicle 100% | 210,000 compounds, 0.42% hits | percent of control (FP), % (no concentration beside the values);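 active means replicate mean at 85% of control or lower, very high polarization wells dropped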;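 further: wells of about 15 µL received 100 nL stock; the first replicate is given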
Target sequence (P08753 whole entry, looked up): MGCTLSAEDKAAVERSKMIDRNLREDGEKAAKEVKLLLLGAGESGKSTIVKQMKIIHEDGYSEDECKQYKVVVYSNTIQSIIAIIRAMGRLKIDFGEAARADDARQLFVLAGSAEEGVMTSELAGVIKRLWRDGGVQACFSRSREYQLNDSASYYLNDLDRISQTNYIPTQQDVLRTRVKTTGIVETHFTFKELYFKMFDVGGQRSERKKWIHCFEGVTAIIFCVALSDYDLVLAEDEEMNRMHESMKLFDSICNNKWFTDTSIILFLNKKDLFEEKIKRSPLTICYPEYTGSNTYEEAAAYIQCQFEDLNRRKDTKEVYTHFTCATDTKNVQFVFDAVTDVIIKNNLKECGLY
Sa growth 42C – blocks Staphylococcus aureus growth; S. aureus RN4220 growth, OD600, 20 h, 42 °C; active compounds read low; relative growth, % (test concentration not listed); AID 720641; 170,000 compounds, 0.53% hits;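 active means growth at 42 °C up to 50% and 20 or more points under that at 30 °C, or under 10% at both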;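 further: 300 nL library stock went into each well; scaled to the means of positive and negative controls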
Sa growth 42C second temp – further read-out of Sa growth 42C, marked with its call; relative growth, %; measured here: growth at 30 °C;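 optical density after 20 h as mean of two plates; 100% = untreated growth and lower means inhibition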
Active calls of the source: *; nt = not tested or not shown; & = joins results of further samples. Hits appear at their usual frequency; any-hit rate near 0.79%.

SMILES	HCMV NEC inh	GIV Gai3 FP	Sa growth 42C	Sa growth 42C second temp
CCC(=O)Nc1cc(C(=O)O)ccc1Sc1ccc(OC)cc1	nt	99	120	98
S=c1n(CN2CCCCC2)nc2n1CCCCC2	-64	nt	90	94
c1ccc(C2Oc3ccccc3C3Oc4ccccc4CC23)cc1 (stereo unspecified)	-6	nt	77	92
COCCCNC(=O)c1ccc(NC(=O)N2CCCCc3ccccc32)cc1	nt	96	97	86
CCOCCCNC(=O)C(NC(=O)c1cnccn1)c1ccc(C)cc1 (stereo unspecified)	-16	99	nt	nt
COc1ccc(NCc2nc3nc(C)cc(=O)n3[nH]2)c(OC)c1	-26	104	nt	nt
Cc1[nH]c2ccc(C(=O)OC3CCOC3=O)cc2c1C (stereo unspecified)	-9	nt	98	93
c1csc(CNCc2cccs2)c1	3	106	115	104
Cc1ccc(C2=NN3C(C2)c2cc(Br)ccc2OC3c2ccc(OCc3ccccc3)cc2)cc1 (stereo unspecified)	-6	110	nt	nt
c1ccc2c(c1)nc(SC1CCCCC1)c1nncn12	nt	102	66	80
CC1CCN(C(=O)CN(C)S(=O)(=O)c2ccc3ccccc3c2)CC1	4	99	112	74
COC(=O)c1ccc(NC(=O)COC(=O)C2=NN(c3ccccc3)C(=O)CC2)cc1	-30	nt	99	89
CC(C)OCCCn1c(SCc2ccccc2Cl)nc2c(sc3ccccc32)c1=O	nt	111	96	96
COc1ccccc1N1C(=O)CCC1(C#N)c1ccc(OCc2ccccc2)cc1 (stereo unspecified)	nt	107	97	96
C=CCNC(=O)c1ccc2c(c1)N(Cc1cccc(Cl)c1)C(=O)c1ccccc1S2	nt	102	85	77
CCN(CC)CCCNC(=O)CCCn1ncn2c(cc3occc32)c1=O	-31	100	108	88
COc1ccc(S(=O)(=O)NCCC(=O)NC2CCCCC2)cc1	nt	96	120	83
N#Cc1c(C(F)(F)F)cc(-c2cccs2)nc1OCC(=O)c1ccccc1	-1	103	111	85
CC1CCc2c(sc3nc(CCC(=O)N4CCCC4)[nH]c(=O)c23)C1 (stereo unspecified)	-19	97	nt	nt
Cc1cnc(C(=O)NC2CCN(c3nc4ccccc4s3)CC2)cn1	-4	102	nt	nt
CCOC(=O)c1c(N)n(CCc2ccccc2)c2nc3ccccc3nc12	-27	102	94	91
Cc1ccc(C)c(NC(=O)c2ccc(-n3cnnc3)cc2)c1	-4	105	97	102
CN(CC(=O)Nc1cccc(C#N)c1)S(=O)(=O)c1cc2c(cc1Cl)NC(=O)CO2	nt	106	109	101
CC1CCCCN1S(=O)(=O)c1ccc(NC(=O)/C=C/c2ccco2)cc1 (stereo unspecified)	-5	115	126	97
O=C(CNS(=O)(=O)Cc1ccccc1)NCc1ccccc1	-22	nt	106	85
COc1ccc(-c2nn3c(-c4ccccn4)nnc3s2)c(OC)c1	-10	109	nt	nt
O=c1[nH]cc(NCc2ccco2)c(=O)[nH]1	17	99	97	101
Cc1nc(C(C)C)ncc1C(=O)Nc1ccc(Cl)cc1	12	104	nt	nt
CCOC(=O)/C(C#N)=C\Nc1ccc(-c2nnc(C(F)(F)F)o2)cc1C	-21	104	93	88
C#CCOC1(C)COC(C)(OCC#C)CO1 (stereo unspecified)	8	106	98	96
CSc1ccc(CCNC(=O)CN2C(=O)COc3ccc(S(=O)(=O)N4CCCC4)cc32)cc1	-12	108	92	88
O=C1COc2cc(S(=O)(=O)CCC(=O)NC3CCCCC3)c(Cl)cc2N1	nt	106	95	88
CCN1CCN(c2ncc3c(n2)CCN(Cc2ccc(Br)s2)C3)CC1	nt	108	100	94
COc1ccc(-n2c(C)cc(CNS(=O)(=O)c3ccc(C)cc3)c2C)cc1	-16	119	nt	nt
CNS(=O)(=O)c1ccc(Br)cc1I	-28	105	93	90
C=CCc1cc(/C=C2\C(=O)NC(=S)N(c3ccc(CC)cc3)C2=O)cc(OC)c1OCC(=O)O	-2	97	nt	nt
O=C(C1CCN(S(=O)(=O)c2ccc3nc(-c4ccccc4)[nH]c3c2)CC1)N1CCCC1	58	107	nt	nt
Cc1ccc(-c2nc(CSCC(=O)NCCN3CCN(c4cccc(Cl)c4)CC3)c(C)o2)cc1	-30	102	87	81
Cc1cc(/C=C2/SC(=O)N(c3ccccc3)C2=O)c(C)n1-c1cccnc1	nt	99	112	83
CCOC(=O)c1c(C)n(C)c2ccc(OCC(O)Cn3nnc4ccccc43)cc12 (stereo unspecified)	0	109	100	78

Of the compounds above, these contain a halogen.
SMILES	HCMV NEC inh	GIV Gai3 FP	Sa growth 42C	Sa growth 42C second temp
Cc1ccc(C2=NN3C(C2)c2cc(Br)ccc2OC3c2ccc(OCc3ccccc3)cc2)cc1 (stereo unspecified)	-6	110	nt	nt
CC(C)OCCCn1c(SCc2ccccc2Cl)nc2c(sc3ccccc32)c1=O	nt	111	96	96
C=CCNC(=O)c1ccc2c(c1)N(Cc1cccc(Cl)c1)C(=O)c1ccccc1S2	nt	102	85	77
N#Cc1c(C(F)(F)F)cc(-c2cccs2)nc1OCC(=O)c1ccccc1	-1	103	111	85
CN(CC(=O)Nc1cccc(C#N)c1)S(=O)(=O)c1cc2c(cc1Cl)NC(=O)CO2	nt	106	109	101
Cc1nc(C(C)C)ncc1C(=O)Nc1ccc(Cl)cc1	12	104	nt	nt
CCOC(=O)/C(C#N)=C\Nc1ccc(-c2nnc(C(F)(F)F)o2)cc1C	-21	104	93	88
O=C1COc2cc(S(=O)(=O)CCC(=O)NC3CCCCC3)c(Cl)cc2N1	nt	106	95	88
CCN1CCN(c2ncc3c(n2)CCN(Cc2ccc(Br)s2)C3)CC1	nt	108	100	94
CNS(=O)(=O)c1ccc(Br)cc1I	-28	105	93	90
Cc1ccc(-c2nc(CSCC(=O)NCCN3CCN(c4cccc(Cl)c4)CC3)c(C)o2)cc1	-30	102	87	81

Remaining list, next part:
SMILES	HCMV NEC inh	GIV Gai3 FP	Sa growth 42C	Sa growth 42C second temp
Cn1ncc2c(NCc3cccc(Cl)c3)ncnc21	nt	106	87	91
Cc1ccc(-c2csc(N3CCC(NS(=O)(=O)c4ccc5c(c4)OCCO5)CC3)n2)cc1	0	102	103	84
COc1ccc(C(=O)Nc2ccc3nc(N4CCCN(c5ncccn5)CC4)cc(C(=O)O)c3c2)cc1	-56	119	nt	nt
C/C(CCc1oc2ccc(Br)cc2c1-c1ccc(C)o1)=N\O	-31	96	84	72
Cc1onc(-c2ccccc2)c1C(=O)C(C#N)c1nc(-c2ccc(F)cc2)cs1 (stereo unspecified)	-39	nt	30	45
COc1ccc(C2CC(=O)C3=C(C2)NC(C)=C(C#N)C3c2cc3c(cc2Cl)OCO3)cc1 (stereo unspecified)	-22	102	nt	nt
COc1ccc(-c2csc(NC(=O)c3cc4ccccc4cc3OC)n2)cc1OC	-17	100	nt	nt
CCn1c(C(=O)NC2CC2)cc2sc(Cl)cc21	nt	104	99	71
CNC(=O)c1sc(N2CCCC2)nc1N	-25	101	nt	nt
Cc1cc2c(cc1S(=O)(=O)N(C)Cc1ccccc1)n(C)c(=O)c(=O)n2C	-10	102	101	82
CCOCCCn1c(SCC(=O)Nc2ccc(OC)cc2OC)nc2ccccc2c1=O	nt	106	91	96
Cc1c(O)c(CN2CCC(C)CC2)cc2c(-c3ccccc3)cc(=O)oc12	-24	nt	106	79
Cc1cc(NCCN(C)C)n2nc(C)c(-c3ccc(F)cc3)c2n1	-13	103	nt	nt
COc1ccc(-c2nc3ccccc3c(=O)n2NCc2ccc(Br)cc2)cc1OC	-10	104	nt	nt
COc1cccc(NC(=O)c2oc3ccc(S(=O)(=O)N4CC(C)CC(C)C4)cc3c2C)c1 (stereo unspecified)	nt	104	100	94
CS(=O)(=O)Nc1ccc(N2CCN(C(c3ccccc3)c3ccccc3)CC2)cc1C(=O)O	-1	96	nt	nt
Cc1ccc(NC(=O)Nc2nnc(N(C)Cc3ccccc3)s2)cc1	7	96	96	92
COc1ccc(OCCn2c(S(=O)(=O)Cc3ccccc3)nc3ccccc32)cc1	5	108	132	101
Cc1cccc(NC(c2cccnc2)c2ccc3cccnc3c2O)n1 (stereo unspecified)	-89	100	nt	nt
COc1ccc(CCNC(=O)c2cc3sc(C)cc3n2C)cc1OC	nt	104	82	83
CCCCN(Cc1cc2ccccc2[nH]c1=O)S(C)(=O)=O	0	110	109	94
O=c1cc(C(F)(F)F)nc(-c2cccs2)[nH]1	-10	107	119	64
N#CSCC(=O)c1ccc(Br)cc1	-22	108	60	44
O=C(NCCCN1CCCC1)c1cc2ccc3cccnc3c2[nH]1	-29	99	121	79
Cc1ccc(S(=O)(=O)c2ccc(C(=O)NC3CCCC3)cn2)cc1C	-22	103	nt	nt
Cc1cc(C)c(S(=O)(=O)NCCc2sc3nc(-c4ccc(F)cc4)nn3c2C)c(C)c1	nt	102	121	90
N#Cc1c(N2CCOCC2)cccc1-n1ccnc1	-7	97	93	82
CN(C)c1ccc(-c2noc(C3CC(=O)N(c4ccc5c(c4)OCCO5)C3)n2)cc1 (stereo unspecified)	nt	98	100	92
OCCN(Cc1ccccc1)Cc1ccccc1	-3	104	101	92
CNS(=O)(=O)c1ccc(NC(=O)CCC(=O)c2ccc(C)cc2)cc1	3	nt	102	91
COc1ccc(CNS(=O)(=O)c2cc3c4c(c2)CCN4C(=O)CC3)cc1	3	109&101	109	105
Cc1cn(C)c(CC(=O)NCc2ccc(F)cc2)c1C(=O)O	nt	105	103	93
OCc1nnc2n1N=C(c1ccc(Cl)cc1)CS2	-25	109	100	101
CC(On1nnc2ccccc21)C(=O)Nc1ccc(Cl)cc1Cl (stereo unspecified)	-14	nt	83	96
O=C(c1ccc(Cn2c(=O)c3cccn3c3cccnc32)cc1)N1CCCC1	-18	104	92	77
CCc1ccc(N(CC(=O)N2CCCCC2)S(C)(=O)=O)cc1	25	106	76	95
Cc1c(C(=O)N2CCN(C3CCCCC3)CC2)sc2ncnc(N3CCN(C)CC3)c12	-24	102	nt	nt
CCOC(=O)CSc1nnc(CSc2nc3sc4c(c3c(=O)[nH]2)CCC4)n1-c1ccccc1	-4	102	nt	nt
Cn1c(=O)c2c(nc(NCCOCCO)n2Cc2ccc(Cl)c(Cl)c2)n(C)c1=O	-10	102	nt	nt
COc1cccc(OC)c1CO	-22	102	99	91
N=c1n(CCO)c2ccccc2n1Cc1ccccc1Cl	12	101	94	94
Fc1ccccc1N1CCN(c2c3c(nc4ncnn24)CCC3)CC1	-17	105	nt	nt
Cc1cc(C)c(NC(=O)c2ccc(S(=O)(=O)c3ccc(Br)cc3)nc2)c(C)c1	-29	104	nt	nt
CC(=O)NCC(=O)N(c1c(C)n(C)n(-c2ccccc2)c1=O)C1(C(=O)NC2CCCC2)CCCCC1	-13	96	nt	nt
Cc1nn(C(=O)c2cccc(F)c2)c(C)c1S(=O)(=O)N1CCCCCC1	nt	109	87	91
Cc1nn(-c2cc(N3CCCCC3)ncn2)c(C)c1CCC(=O)N1CCN(c2ccccn2)CC1	-18	100	nt	nt
CCOc1ccc(NC(=O)CC2C(=O)N(c3ccc(C)cc3)C(=O)N2Cc2ccc(OC)cc2)cc1 (stereo unspecified)	-29	97	82	77
Cc1nn(-c2ccccc2)c(N2CCCC2)c1/C=N/O	-6	nt	105	99
CCCOc1ccc(CNC(=O)c2oc3ccc4c(c3c2C)C(=O)CC(C)(CC)O4)cc1 (stereo unspecified)	-18	106	100	83
Cn1c(SCCc2ccccc2)nnc1-c1ccc2c(c1)OCO2	-1	109	104	96

(next part)
SMILES	HCMV NEC inh	GIV Gai3 FP	Sa growth 42C	Sa growth 42C second temp
CCOC(=O)c1nc(C)sc1-c1ccnn1S(=O)(=O)c1ccc(C)cc1	-30	101	102	88
COC(=O)C(O)(c1ccc(N)c(OC)c1)C(F)(F)F (stereo unspecified)	-19	101	96	98
CC(C)(C)n1ncc2c(=O)n(CC(=O)N3CCCc4ccccc43)cnc21	15	106	92	90
COc1cccc(CN(C(=O)/C=C/c2ccccc2)C2CCS(=O)(=O)C2)c1 (stereo unspecified)	nt	105	116	70
CCC(C)Nc1cc(C(C)C)c(C#N)c2nc3ccccc3n12 (stereo unspecified)	-37	97	89	78
CS(=O)(=O)Nc1ccccc1-c1nnc(Cc2cc(F)cc(F)c2)o1	-2	100	116	89
CC1CC(Nc2ccccc2)c2ccccc2N1C(=O)c1ccccc1Cl (stereo unspecified)	-21	99	nt	nt
N#CCOC(=O)c1ccccc1S(=O)(=O)N1CCCCC1	4	nt	84	98
CCn1c2ccccc2c2nnc(NCCN3CCN(c4cc(Cl)ccc4C)CC3)nc21	nt	98	96	82
Cc1cc(C)nc(SCc2cc(-c3nn(C)c(=O)c4ccccc34)ccc2C)n1	nt	99	102	90
CCN(CC)C(=O)c1ccc(-c2cccs2)s1	-3	103	116	110
Cc1ccc(-c2noc3c(N4CCc5ccccc54)nc(C)nc23)cc1	-5	105	nt	nt
COC(=O)C1C(=O)NC(SCc2cccc3ccccc23)=C(C#N)C1c1ccccc1C (stereo unspecified)	-7	111	nt	nt
CCC(Cc1ccccc1)NC(=O)c1ccc2nc(N3CCC(C)CC3)sc2c1 (stereo unspecified)	-27	101	97	86
O=C(c1cnc(N2CCOCC2)nc1)N1CCN(c2ccc(F)cc2)CC1	-31	109	105	89
COC(=O)C1=C(CN2CCOCC2)NC(=O)NC1c1cccc(OC)c1 (stereo unspecified)	27	106	90	75
COC(=O)c1sccc1S(=O)(=O)N1CCN(c2cc(Cl)ccc2C)CC1	nt	101	76	80

Bioassay records: PubChem BioAssay, ICCB-Longwood Screening Facility, Harvard Medical School
